Screening results deposited in PubChem BioAssay by several laboratories.
Mtb hypoxia rep – inhibitors of hypoxia-regulated fluorescent reporter in Mycobacterium tuberculosis. M. tuberculosis hypoxia-regulated fluorescent reporter, fluorescence. fluorescence inhibition, % (test concentration not listed). hit rate 0.1% among 300,000;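 active = 35 to 45% if threefold the growth effect, above 45% if 1.5-fold the growth effect; inactive = the rest, general growth blockers included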;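 also: wells of about 50 µL received 100 nL stock; 0% = vehicle wells and 100% = reference inhibitor wells; whole bacteria with a GFP reporter of the hypoxia response; strong numbers were not always called active; many hits fall short of the cut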
Sa ugtP lethal – growth inhibition of S. aureus ugtP deletion strain. growth inhibition, % (no concentration beside the values). hit rate 0.54% among 330,000. AID 1259309. S. aureus RN4220 ugtP deletion, OD600 growth, 16 h; some inactives read as strong as hits;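 active = z-score under -3 and OD600 up to 0.15 on both plates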;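 also: plate controls were untreated wells for no effect and antibiotic for full effect; wells of about 80 µL received 100 nL stock; the first replicate is given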
Autofluor counter – compound fluorescence in toxin protease inhibitor counterscreen. fluorescence intensity (concentration not given with the values). hit rate 3.1% among 360,000. compound autofluorescence counterscreen, microsphere flow cytometry; active compounds read high. AID 624483;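 active = at least 3 SD above the mean of all compounds, about 16000 in these data; inconclusive = too few beads counted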;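 also: 100 nL of 1 mM stock went into each well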
BJeLR lethal – BJeLR cell viability loss; BJeLR (HRASV12) viability, CellTiter-Glo ATP luminescence, 48 h; reference of the scale not given here; inhibition, % (concentration not given with the values); hit rate 0.17% among 300,000; AID 1554;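 active = replicate mean above 50%; inconclusive = above 50% but judged a plate artefact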;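 also: 50 nL library stock added to about 25 µL; numbers are from one replicate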
PrP 5UTR inh – suppresses PrP 5' UTR mRNA reporter expression. cell-based PrP 5' UTR mRNA reporter, plate reader. inhibition, % (no concentration beside the values). hit rate 0.35% among 340,000;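 active = every replicate at 50% or more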;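 also: 0 = median of the neutral control wells; tested in H4 reporter cells; numbers are from one replicate; inactives centre near -14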
Sa RN4220 lethal – kills Staphylococcus aureus RN4220; S. aureus RN4220 growth, OD600, 16 h; inhibition, % (test concentration not listed); hit rate 0.33% among 330,000; AID 1259311;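 active = z-score of -3 or lower and OD600 up to 0.18 on both plates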;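 also: plate controls were untreated cells for no effect and reference antibiotic for full effect; stock transfer was 100 nL into about 80 µL; one replicate is shown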
Mtb hypoxia rep growth – also measured in Mtb hypoxia rep; calls as there; growth inhibition, %; measured here: M. tuberculosis growth (absorbance);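 0% = vehicle and 100% = reference antibiotic; read after six days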
Numbers without * were called inactive; ? = inconclusive; · = no result given; & = joins results of further samples.

entry	smiles	Mtb hypoxia rep	Mtb hypoxia rep growth	Sa ugtP lethal	Autofluor counter	BJeLR lethal	PrP 5UTR inh	Sa RN4220 lethal
1	Cn1nnnc1SCC(=O)c1ccc(Br)s1	13	15	-10	3079	12	-25	-9.3
2	Cc1cccc2nc(-c3ccco3)oc(=O)c12	3	-4	5	3908	-5	-18	1.1
3	COC(=O)c1ccc([C@@H]2C[C@H]3CN(Cc4cccnc4)C(=O)[C@]34CCCN24)cc1	1	5	-2	5405	-5	-20	-0.9
4	CCOc1cc(CNc2ccc(N3CCCCC3)cc2)cc(Br)c1OCC(=O)NC(C)(C)C	4	0	-7	2488	0	-13	1.9
5	CCc1nnc(NC(=O)CSc2nc3cccnc3n2C2CCCCC2)s1	-1	6	3	3254	14	-19	7.0
6	CCN(CC)c1ccc2c(c1)oc(=O)c1c(Cl)cc(=O)oc12	12	11	-3	13116	31	4	8.5
7	CCc1c(C)nc(N)nc1N1N=C1SCC#N	15	0	5	22462*	-19	-34	6.8
8	CC(C)Cn1c(N)c(/C=N/NC(=O)c2ccc(Cl)cc2)c(=O)n(C)c1=O	·	·	·	3978	-9	-35	·
9	CCc1ccc(/C=C(\Cl)c2nc3cc(Cl)ccc3c(=O)[nH]2)cc1	-4	4	-24	2558	15	-23	-6.2
10	CC1C(=O)OC2C(O)C34C5CC(C(C)(C)C)C36C(OC(=O)C6O)OC4(C(=O)O5)[C@@]12O (some centres not stated)	7	8	-6	·	·	·	17
11	CNc1ccc(/C=C(\C#N)c2ccccn2)cc1[N+](=O)[O-]	-4	18	6	4623	-13	-100	5.4
12	CC1CCN(c2ccc3nnc(CCC(=O)Nc4ccc(F)cc4)n3n2)CC1	16	3	7	5442	0	-13	1.8
13	CC(=NNC(=O)c1c(Cl)c(C)nn1C)c1ccc(NC(=O)C2CCC2)cc1	0	-4	-1	·	·	·	3.5
14	OCCCNc1nccc(-c2cc(Nc3cccc(Cl)c3)ncn2)n1	-2	6	-3	2984	35	44	-2.4
15	CCOC(=O)c1sc(NC(=O)C2CC(=O)N(c3ccc(OC)cc3)C2)nc1C (configuration not stated)	11	4	8	3783	8	-8	2.4

Structural class, the entries above with two or more sulfur atoms (two)
entry	smiles	Mtb hypoxia rep	Mtb hypoxia rep growth	Sa ugtP lethal	Autofluor counter	BJeLR lethal	PrP 5UTR inh	Sa RN4220 lethal
1	Cn1nnnc1SCC(=O)c1ccc(Br)s1	13	15	-10	3079	12	-25	-9.3
5	CCc1nnc(NC(=O)CSc2nc3cccnc3n2C2CCCCC2)s1	-1	6	3	3254	14	-19	7.0

Next section.
entry	smiles	Mtb hypoxia rep	Mtb hypoxia rep growth	Sa ugtP lethal	Autofluor counter	BJeLR lethal	PrP 5UTR inh	Sa RN4220 lethal
16	COCCCNc1nc2ccccc2[nH]c1=O	-9	2	-10	4294	-13	8	0.8
17	COC(=O)c1c(-c2cccc(OC)c2)csc1N	·	·	8	5135	2	-12	-0.7
18	C=Cc1ccc(COC(=O)c2cn(CC)c3nc(C)ccc3c2=O)cc1	9	-5	4	3769	-9	-19	6.0
19	COc1cc(CCC(=O)Nc2ccc(S(=O)(=O)NC3=NCCCCC3)cc2)cc(OC)c1OC	11	2	-67	4397	3	-9	14
20	NS(=O)(=O)c1ccc(NC(=O)Cc2c(F)cccc2Cl)cc1	5	5	3	3386	-10	-10	11
21	NS(=O)(=O)c1ccc(NN=C2CCCc3ccccc32)c([N+](=O)[O-])c1	21	7	6	·	·	·	11
22	CCCCC(=O)Nc1nc(C)c(-c2csc(Nc3cc(OC)ccc3OC)n2)s1	9	6	-57	4062	-3	-7	-4.0
23	COc1ccc(CC(=O)Nc2cc(S(=O)(=O)N3CCCCC3)ccc2N2CCN(C)CC2)cc1	1	2	3	2278	-6	-20	0.6
24	O=C(Cn1nc(-c2ccccc2)c2ccccc2c1=O)Nc1cccnc1	0	3	-2	3241	-3	-11	11
25	CS(=O)(=O)N1CCN(C(=O)c2ccccc2F)CC1	·	·	-1	4014	·	-2	-0.2
26	Cc1ccc(OC(=O)c2cccc(S(=O)(=O)N3CCCC3)c2)c(-n2nc3ccccc3n2)c1	-2	4	8	2465	-3	-122	0.7
27	COc1cccc(Nc2c([N+](=O)[O-])cncc2[N+](=O)[O-])c1	10	15	-1	4972	16	-16	29
28	O=S(=O)(NN=Cc1ccc2c(c1)OCO2)c1ccc(F)cc1	-3	-2	2	·	·	·	-1.3
29	CN(C)CCOc1ccc(Cl)cc1C(C)(C)C	·	·	·	4328	2	-7	·
30	O=C(COc1ccccc1F)OCC(=O)N1CCc2ccccc21	-1	-11	13	·	·	2	5.7

More records:
entry	smiles	Mtb hypoxia rep	Mtb hypoxia rep growth	Sa ugtP lethal	Autofluor counter	BJeLR lethal	PrP 5UTR inh	Sa RN4220 lethal
31	N#Cc1cccc(NC(=O)c2ccc(S(=O)(=O)N3CCOCC3)cc2)c1	11	15	2	9001	·	-7	2.0
32	Oc1ccc(CCc2n[nH]c(=S)n2-c2ccc(F)cc2)cc1	3	8	8	6003	2	-30	4.8
33	COc1ccccc1CNC(=O)CN1CCN(Cc2ccc(Cl)cc2)C1=O	7	5	7	4566	-2	-50	1.9
34	COc1cc(C2C(C#N)=C(N)Oc3n[nH]c(-c4cccnc4)c32)cc(Br)c1O (configuration not stated)	1	-1	0	3423	-7	-5	7.0
35	CN(C(=O)c1ccc(NC(=O)C2CCN(C(=O)OC(C)(C)C)CC2)cc1)C1CC1	5	9	-11	4154	·	-23	4.2
36	COC(=O)c1ccc(NS(=O)(=O)c2cccc3cccnc23)cc1	-1	0	-2	18372*	6	-16	1.5
37	CCOc1cccc2cc(C(C)=O)oc12	14	-6	-1	4407	2	-8	2.8
38	Clc1ccc(-c2nnc3n2CCCCS3)cc1	17	-2	6	2373	-15	-11	7.9
39	COc1ccc(/C=N/NC(=O)Cn2ccnc2C)cc1OC	·	·	·	4173	-4	-19	·
40	CC[C@H](C)[C@H](NC(=O)CNC(=O)COc1cc2c(c3oc(=O)cc(C)c13)CCC(C)(C)O2)C(=O)O	-10	8	5	3383	-3	-29	3.0
41	CC(=O)NCCn1c(SCC#N)nc2ccccc2c1=O	7	7	-8	9593	8	-13	6.4
42	Nc1nc(-c2ccc(Br)cc2)c(S(=O)(=O)c2ccccc2)s1	-4	-5	36	8681	0	-15	0.6
43	NC(COc1ccc(Cl)cc1Cl)=NO	1	-2	8	·	·	·	3.6
44	COC(=O)/C=c1/s/c(=C(\C#N)C(=O)NCc2ccco2)n(-c2ccc(C)cc2)c1=O	·	·	·	4801	0	2	·
45	O=C(NCC1CCCO1)c1cc(-c2ccccc2F)no1 (configuration not stated)	17	4	4	6206	0	-89	5.5

Further structures follow:
entry	smiles	Mtb hypoxia rep	Mtb hypoxia rep growth	Sa ugtP lethal	Autofluor counter	BJeLR lethal	PrP 5UTR inh	Sa RN4220 lethal
46	COC(=O)C1=C(C)NC(C)=C(C(=O)OC)C1c1ccccc1[N+](=O)[O-]	·	·	·	4423	-11	11&3	·
47	CC(=O)NCc1c(Cl)cccc1-n1cccc1	0	-2	9	?	11	-13	3.9
48	COc1ccc(CNC(=O)c2noc(C(C)C)c2[N+](=O)[O-])cc1	0	14	4	2051	-1	-27	5.5
49	O=C(Nc1ccc(F)cc1)Nc1cc(S(=O)(=O)N2CCOCC2)ccc1N1CCCC1	10	3	0	3972	-19	-50	11
50	COc1ccc(C(c2nnnn2C(C)(C)C)N2CCN(C(=O)c3ccco3)CC2)cc1 (configuration not stated)	5	-5	5	2908	-2	4	2.0
51	COc1cc(CNCCN2CCOCC2)ccc1OCc1ccc(Cl)cc1Cl	12	6	-22	2852	-4	-12	-23
52	COc1ccc(C(=O)COC(=O)C(CCCCN2C(=O)C3C4C=CC(C4)C3C2=O)N2C(=O)C3C4C=CC(C4)C3C2=O)cc1 (configuration not stated)	0	2	-19	11131	-5	-75	14
53	COc1ccccc1OP(=O)(Nc1ccc(Br)cc1)Oc1ccccc1OC	10	18	-5	3537	-5	12	2.4
54	S=C(NCc1ccccc1)NNc1ccccc1	18	9	3	8951	2	-62	9.2
55	COc1ccc(NC(=O)C(c2ccccn2)N(C(C)=O)c2ccc(C)cc2)cc1 (configuration not stated)	3	6	2	10608	4	-40	3.5
56	CCc1noc(C)c1C(=O)N1CCN(S(=O)(=O)c2cccs2)CC1	10	3	-1	·	3	-14	5.1
57	CC1(C)CC(=O)C=C(c2cccnc2)C1	10	11	-6	3361	-1	-11	6.2
58	Cc1c2cnn(CC(=O)NCc3ccccn3)c(=O)c2c(C)n1Cc1ccc(Cl)cc1	10	6	4	5584	1	-17	1.2
59	O=S1(=O)CCN2N=C(C34CC5CC(CC(C5)C3)C4)SC2=N1	-4	2	4	4312	-5	-3	3.6
60	O=C(Nc1nccs1)c1cc(S(=O)(=O)N2CCOCC2)c(Cl)cc1Cl	0	2	6	12747	8	-16	0.0

The list continues:
entry	smiles	Mtb hypoxia rep	Mtb hypoxia rep growth	Sa ugtP lethal	Autofluor counter	BJeLR lethal	PrP 5UTR inh	Sa RN4220 lethal
61	CCc1noc(C)c1C(=O)Nc1ccc(S(=O)(=O)N2CCCC(C)C2)cc1 (configuration not stated)	-1	4	4	?	7	-13	5.4
62	CC12CCC(=O)N1C(C(=O)OCc1c(Cl)cccc1Cl)CS2 (configuration not stated)	-8	3	1	3826	-7	-18	9.5
63	CN(Cc1ccccc1)C(=O)c1nc2ccccn2c1CNCCn1cccn1	5	-1	-3	2608	-6	-15	2.8
64	CC(=O)c1ccc2c(c1)C1C=CCC1C(c1ccncc1)N2 (configuration not stated)	11	5	-2	2227	3	-20	13
65	Cc1cc(C=O)c(O)cc1O	·	·	·	4019	-17	-21	·
66	O=C1C=C(c2cccc3c2sc2ccccc23)CC(c2ccc(F)cc2)C1 (configuration not stated)	13	5	9	·	·	·	-6.3
67	Cc1ccc(C(=O)Nc2ccc(C(=O)/C=C/c3cccs3)cc2)cc1	11	7	8	6997	-25	-50	3.9
68	CCOC(=O)N1CCC(NC(=O)CC2C(=O)NCCN2Cc2ccccc2)CC1 (configuration not stated)	4	-3	-1	5493	-2	-14	-1.2
69	CCOC(=O)Cn1cc(/C=N/N2C(=O)C3C4C=CC(C4)C3C2=O)c2ccccc21 (configuration not stated)	·	·	·	3332	-3	-10	·
70	CCOc1cc(C)c(C(C)C)cc1S(=O)(=O)N1CCOCC1	·	·	-4	2063	-13	6	4.2
71	O=C(NCc1ccccc1)C(c1ccc(F)cc1)N(C(=O)c1csnn1)c1ccccc1 (configuration not stated)	3	-2	2	2833	-7	-16	8.7
72	Nc1ccc2c(c1)C(=O)N(CCCC(=O)O)C2=O	5	4	7	3470	-2	-25	3.6
73	O=C(CNC(=O)c1cccs1)OCc1ccc(Br)cc1	10	2	0	5251	5	-4	3.3
74	Cc1c(C(=O)NC(C)C)c(-c2ccccc2)nn1-c1ccccc1	13	8	10	7049	3	-21	3.6
75	CN(C)CCNC(=O)c1ccc2c(c1)N(Cc1ccc(F)cc1)CCS2	·	·	1	5472	-2	-12	-1.2
76	COc1ccc(NC(=S)NNC(=O)c2nnn(-c3ccccc3)c2C)cc1	·	·	·	2129	-2	-18	·

Compound profiles, as listed above. Order of values: Mtb hypoxia rep | Mtb hypoxia rep growth | Sa ugtP lethal | Autofluor counter | BJeLR lethal | PrP 5UTR inh | Sa RN4220 lethal
Entry for CN(Cc1ccccc1)C(=O)c1nc2ccccn2c1CNCCn1cccn1 : 5 | -1 | -3 | 2608 | -6 | -15 | 2.8
Entry for CCOc1cc(C)c(C(C)C)cc1S(=O)(=O)N1CCOCC1 : · | · | -4 | 2063 | -13 | 6 | 4.2
Entry for CC12CCC(=O)N1C(C(=O)OCc1c(Cl)cccc1Cl)CS2 (configuration not stated) : -8 | 3 | 1 | 3826 | -7 | -18 | 9.5
Entry for Cc1ccc(C(=O)Nc2ccc(C(=O)/C=C/c3cccs3)cc2)cc1 : 11 | 7 | 8 | 6997 | -25 | -50 | 3.9
Entry for Cc1c(C(=O)NC(C)C)c(-c2ccccc2)nn1-c1ccccc1 : 13 | 8 | 10 | 7049 | 3 | -21 | 3.6
